YopH inh – YopH tyrosine phosphatase inhibitors, primary screen, biochemical, fluorescence Ex485/Em525. YopH tyrosine phosphatase [Yersinia enterocolitica]. inhibition, %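 (about 10 µM by stock and volumes)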. 140,000 tested, 0.16% active;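 active = inhibition of 50% or more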;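 note: controls were vehicle for no effect and minimum signal wells for full effect; inactives centre near -20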
Mtb bLac sens – beta-lactam sensitization of Mtb H37Rv, H37Rv. M. tuberculosis H37Rv growth with meropenem, percent inhibition; hits of this screen are not shown here. inhibition, % at 25 µM. 330,000 tested, 0.27% active. AID 434955, 2010;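 active = about 74% or more and at least 40 points above the plate without the antibiotic, then above 30% in a dose series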;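 note: growth measured after seven days incubation then overnight dye step; 0% = bacteria only wells and 100% = bacteria with antibiotic; twin plates without the antibiotic show which effects depend on it; some results filed as inactive read as strong as hits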
RecA intein inh – Mtb RecA intein splicing inhibitors, primary screen, biochemical, fluorescence, HTS; Protein RecA (Mycobacterium tuberculosis (strain ATCC 25618 / H37Rv)), P9WHJ3; cell-free RecA intein splicing; AID 2221, 2009; 290,000 tested, 0.75% active; inhibition, %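 (about 9 µM by stock and volumes)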; in the data active = inhibition above about 30%;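 note: 0% = vehicle wells and 100% = reference inhibitor control wells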
Target sequence (P9WHJ3 whole entry, looked up): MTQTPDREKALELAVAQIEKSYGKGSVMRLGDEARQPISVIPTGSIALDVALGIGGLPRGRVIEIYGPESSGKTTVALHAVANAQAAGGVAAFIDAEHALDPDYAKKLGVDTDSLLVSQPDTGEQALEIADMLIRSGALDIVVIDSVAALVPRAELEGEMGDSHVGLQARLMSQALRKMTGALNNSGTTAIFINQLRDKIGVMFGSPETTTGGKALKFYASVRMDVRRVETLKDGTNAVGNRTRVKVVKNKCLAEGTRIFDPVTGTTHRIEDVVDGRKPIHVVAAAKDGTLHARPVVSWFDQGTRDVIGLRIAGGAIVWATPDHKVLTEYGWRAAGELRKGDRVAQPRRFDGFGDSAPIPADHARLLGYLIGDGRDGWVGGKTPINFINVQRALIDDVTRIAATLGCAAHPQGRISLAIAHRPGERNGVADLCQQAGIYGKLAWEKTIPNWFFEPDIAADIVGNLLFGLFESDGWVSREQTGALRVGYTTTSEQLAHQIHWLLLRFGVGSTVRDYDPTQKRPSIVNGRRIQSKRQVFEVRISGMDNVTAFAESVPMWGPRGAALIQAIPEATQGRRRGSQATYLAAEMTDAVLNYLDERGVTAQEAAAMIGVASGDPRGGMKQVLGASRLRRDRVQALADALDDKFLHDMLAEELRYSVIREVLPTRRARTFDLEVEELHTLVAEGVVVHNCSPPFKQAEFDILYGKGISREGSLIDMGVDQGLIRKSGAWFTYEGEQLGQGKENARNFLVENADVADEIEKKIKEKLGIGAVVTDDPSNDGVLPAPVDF
Arbovirus anti – antivirals against arbovirus infection, primary screen, cell-based, full library, 10K replicate subset. 200,000 tested, 0.37% active. inhibition, % at 10 µM. arbovirus infection cell-based antiviral screen;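 active = inhibition from about 30%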;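 note: bluetongue infection of BSR cells; cell survival read as ATP light after 72 h; 0% = infected wells without compound and 100% = uninfected wells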
Mtb H37Rv – M. tuberculosis H37Rv growth inhibitors, H37Rv strain (AID 1626) | M. tuberculosis H37Rv growth inhibition; higher % means a stronger effect | one-dose inhibition, % at 10 µM; IC50 in µM for titrated hits | 220,000 tested, 0.95% active;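 active = confirmed in a dose series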;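 note: bacteria incubated seven days before Alamar blue readout; 0% = bacteria only wells and 100% = bacteria with antibiotic wells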
Numbers without * were called inactive; . = no result given.

Structure,YopH inh,Mtb bLac sens,RecA intein inh,Arbovirus anti,Mtb H37Rv
COc1ccc(OCC(=O)Nc2ccc(N3CCCCC3)cc2)cc1,.,-2,-1.3,-25,-1%
O=C(c1ccc2ccccc2c1)N1CCN(c2ccc(C(F)(F)F)cn2)CC1,-29,1,1.7,5,1%
CC(C)[C@H](NC(=O)N1CC(=O)Nc2ccccc21)C(=O)N1CCC[C@H]1C(=O)O,.,0,12,.,.
Cc1sc(NC(=O)/C=C/c2ccco2)c(C(=O)OC(C)C)c1C,-26,10,0.9,-6,-2%
COc1ccc(NC(=O)CSc2ccc(-c3sc(C)nc3C)nn2)cc1OC,.,-13,5.5,.,.
O=C(O)C1CC(=O)N(C2CCCCCC2)C1 (centres undefined),-52,-8,.,4,3%
COc1ccc(/C=C/CN2CCC(n3nccc3NC(=O)C3CCCC3)CC2)cc1,.,3,-2.7,.,.
COc1ccc(-c2nnn(CC(=O)N(CC(=O)NCCC(C)C)c3ccccc3)n2)cc1OC,-8,-1,1.2,-2,-7%
Cc1nnc(SCC(=O)c2ccc(S(=O)(=O)N3CCOCC3)cc2)n1-c1ccccc1,-37,-5,3.3,4,-2%
Cc1ccc(C(=O)Nc2nc(C)c(C(=O)Nc3ccc4c(c3)CCC4)s2)cc1,-23,97,0.4,-29,2.7µM*
CCOc1ccc(N2CC(C(=O)Nc3ccccc3N3CCCC3)CC2=O)cc1 (centres undefined),.,-15,1.6,.,.
COc1cccc(NC(=O)COc2ccc(S(=O)(=O)NC(C)C)cc2)c1,6,9,.,-6,-3%
Cc1nnc(C)c2c(C)n(C(c3ccccc3)c3ccccc3)c(C)c12,-12,-6,-7.6,-8,0%
COc1cc(/C=N/N2CCN(C3c4ccccc4-c4ccccc43)CC2)cc(OC)c1O,-38,2,-2.9,-3,-5%
Cc1ccccc1NC(=O)CCC(=O)N/N=C/c1cc([N+](=O)[O-])ccc1O,-42,33,2.3,0,-1%
COC(=O)C1C(c2ccccc2)C=CC(c2ccccc2)C1C(=O)O (centres undefined),.,-7,-1.8,.,1%
CC(=O)OC1COC(N2CCc3ccccc32)C(OC(C)=O)C1OC(C)=O (centres undefined),-35,5,1.2,-2,5%
CC(=O)NCCC(=O)Nc1cc(F)ccc1C,18,-7,-1.0,0,-3%
COc1cc(OC)cc(C(=O)NCc2n[nH]c(=S)n2-c2ccccc2)c1,-29,-6,-1.9,-7,-2%
COc1ccc(-c2cn3c(n2)CCC3)cc1,-50,-4,1.1,8,6%
CN(CCC#N)C(=O)COC(=O)c1ccccc1OCc1ccccc1Cl,.,2,4.0,3,1%
CN(C)S(=O)(=O)c1ccc(N2CCCC2)c(C(=O)N2CCN(S(=O)(=O)c3ccccc3F)CC2)c1,.,-8,-2.6,.,.
CCOC(=O)N1CCN(C(=O)CN(Cc2ccccc2)S(C)(=O)=O)CC1,3,-4,2.0,-3,12%
COC(=O)c1cccc(N2CCCC2=O)c1,.,-5,-0.6,.,3%
Cc1cc(C)cc(NC(=O)CSc2nnc(-c3ccncc3)o2)c1,.,0,0.6,.,.

The listing continues:
Structure,YopH inh,Mtb bLac sens,RecA intein inh,Arbovirus anti,Mtb H37Rv
O=c1c(Cc2c(F)cccc2Cl)c(O)ccn1C1CC1,.,2,-0.1,5,4%
CCOC(=O)c1noc(C)c1C(=O)Nc1nc(C)cc(C)n1,.,-5,-1.8,4,-5%
O=C(COC(=O)Cc1c(Cl)cccc1Cl)NCC1CCCO1 (centres undefined),.,-2,0.3,5,-3%
Cc1cc(NCc2ccco2)n2ncnc2n1,-15,4,0.6,-3,-1%
CC(=O)N1CCN(c2nc(N)c(C#N)c(CC#N)c2C#N)CC1,.,-9,0.7,.,-17%
Cc1ccc(C2C(C#N)=C(N)OC3=C2C(=O)CC(C)(C)C3)s1 (centres undefined),.,3,-8.3,.,2%
CC(C)(C)c1ccc(S(=O)(=O)NNC(=O)c2cc3ccccc3[nH]2)cc1,.,6,16,.,.
COc1ccccc1CN1CCNC(=O)C1CC(=O)O (centres undefined),.,-4,-3.7,8,-11%
CCCC1=C(C(=O)OCC)C(/C=C/c2ccccc2)n2ncnc2N1 (centres undefined),6,7,.,-5,8%
CCc1cc(C(=O)N2CCOCC2)c(NC2=NS(=O)(=O)c3ccccc32)s1,-38,-6,-2.1,0,-2%
CCOC(=O)C1=C(CSc2nc(C)cc(C)c2C#N)OC(N)=C(C#N)C1c1ccccc1 (centres undefined),17,11,5.9,-3,0%
N#Cc1c(N(CCO)CCO)nc(N)c2c(N)nc3c(c12)CC(=O)N3CC1CCCO1 (centres undefined),.,-9,-44,.,-14%
COc1ccc(N2CCN(C(=O)c3ccc(NS(=O)(=O)c4ccccc4)cc3)CC2)cc1,-5,57,1.9,13,9%
O=C(CCn1ccc([N+](=O)[O-])n1)Nc1nccs1,.,-6,-1.0,6,1%
Cc1cc(C(=O)CSc2nn3c(=O)c(C(C)(C)C)nnc3s2)c(C)n1C1CC1,.,4,8.7,20,7%
O=C(NNC(=O)C1CCN(S(=O)(=O)c2c(Cl)cccc2Cl)CC1)c1ccccc1O,.,2,7.0,.,.
O=C1C2C(C(=O)N1CC1CCCO1)C1C=CC2C12CC2 (centres undefined),2,-1,-1.0,7,2%
CCCCCC(=O)N(CN1C(=O)CCC1=O)c1ccccc1,-36,-14,1.1,4,-2%
CN1CCN(c2ccc(NC(=O)C(C)(c3ccccc3)c3ccccc3)cc2)CC1,.,5,-2.6,.,.
COc1cccc(C2(c3cccc(OC)c3)CC2C(=O)Nc2ccccc2Cl)c1 (centres undefined),-30,5,1.0,-2,.
Cc1[nH]c2ccccc2c1CCNCc1ccco1,.,-4,-2.7,.,.
Cc1ccc(S(=O)(=O)N2CCN3CCCC3C2)cc1 (centres undefined),.,-8,-0.9,.,.
O=C(CSc1nnc(-c2ccc(C(F)(F)F)cn2)o1)Nc1ccccc1Cl,.,-5,-0.5,.,-1%
COc1ccc(S(=O)(=O)NCCS(=O)(=O)N2CCN(c3ccccc3)CC2)cc1,.,-4,13,.,.
CCOC(=O)Cc1c(C)nc2c(-c3ccccc3)c(C)nn2c1C,-2,-2,0.3,-3,3%

The list goes on:
Results follow in this order: YopH inh | Mtb bLac sens | RecA intein inh | Arbovirus anti | Mtb H37Rv
CCc1cccc(NC(=O)C2CCCN2C(=O)Nc2ccc(C)cc2)c1 (centres undefined)
→ . | -2 | -0.1 | . | .
c1cncc(CSc2ccc(-c3ccc4c(c3)OCO4)nn2)c1
→ . | 4 | 2.8 | -28 | 4%
COC(=O)c1c(NC(=O)c2ccccc2N(C)S(=O)(=O)c2ccccc2)sc2c1CCCC2
→ -41 | . | 2.3 | -21 | 14%
O=c1cnnc(SCc2ccc([N+](=O)[O-])cc2)[nH]1
→ . | -2 | 9.5 | 3 | 3%
COc1cc(C(F)(F)F)ccc1C(=O)NCCc1ccco1
→ . | 1 | -2.1 | . | .
Cc1cccc(OCC(=O)Nc2nnc(S(=O)(=O)N3CCCCC3)s2)c1
→ . | -2 | 0.8 | . | .
COc1ccc(NC(=O)C(C)Sc2ccccc2)cc1 (centres undefined)
→ -16 | 3 | 0.7 | 5 | 3%
Cc1ccccc1OCC(=O)NCC(=O)OCC(=O)c1ccc2ccccc2c1
→ -9 | -3 | -4.1 | -1 | -2%
Cc1nc2c(c(=O)c3ccccc3n2C)c(=O)n1-c1ccc(F)cc1
→ . | -5 | -0.6 | . | -8%
CSc1c(-c2ccccc2)nc2ccccc2c1C(=O)O
→ -42 | -8 | -0.1 | -4 | -4%
O=C(NCc1cccc(Cl)c1)c1ccc(CS(=O)Cc2ccccc2Cl)o1 (centres undefined)
→ . | 6 | 1.6 | . | .
CCCCCOc1ccc(Br)cc1CSC(=N)N
→ -16 | . | 18 | -43 | 9.4µM*
COc1ccc([N+](=O)[O-])cc1NC(=O)N(C)Cc1ccco1
→ . | 1 | -3.9 | . | -8%
CCN1C/C(=C/c2cccs2)c2nc3ccccc3c(C(=O)O)c2C1
→ . | -5 | -7.0 | . | -8%
Cc1ccc(NC2=NCC(=O)N2Cc2cccs2)cc1C
→ . | 4 | -2.4 | -5 | 9%
O=C(C(=O)N1CCCC1)c1c(-c2ccccc2)[nH]c2ccccc12
→ . | -7 | 0.7 | . | .
COc1ccccc1NC(=O)c1oc2ccc(C)cc2c1C
→ -40 | 68 | 2.8 | 6 | 4%
CC1=CC(c2ccccc2)n2nc(N3C(=O)CCC3=O)nc2N1 (centres undefined)
→ -5 | 15 | -17 | 5 | -4%
O=C(CCCN1C(=O)[C@H]2CC=CC[C@H]2C1=O)NCc1nc(-c2ccc(Cl)cc2)no1
→ . | -3 | 0.3 | . | .
Cc1cc(S(=O)(=O)NC2CCCCC2)ccc1OCC(=O)NCc1cccnc1
→ 4 | -5 | -0.1 | 6 | 2%
CC1(C)Cc2nc3sc4c(=O)[nH]cnc4c3cc2CS1
→ -19 | -13 | 1.3 | 25 | 0%
COCCN1Cc2cc3cc(C)ccc3nc2SC1=Nc1ccc(OC)cc1
→ . | 92 | 3.5 | -10 | 5%
Cc1[nH]cnc1CSCCN
→ 0 | -2 | 0.4 | 0 | 0%
CN=c1scc(-c2ccco2)n1/N=C/c1ccc(O)c(O)c1
→ . | . | -3.3 | -8 | 9%
CCN(CC)C(=O)CSc1ncnc2c(-c3cccs3)nsc12
→ -37 | -3 | . | 21 | -1%
Cc1cc(=O)n(C)c(=O)n1CCCCCN1CCCC1
→ 1 | -3 | -0.6 | 6 | -5%
O=C(Cc1cccc2ccccc12)NC(NC(=S)Nc1ccccc1Cl)C(Cl)(Cl)Cl (centres undefined)
→ -29 | -5 | 6.9 | -8 | 3%
COc1ccc(N(CC(=O)N2CCCC(C)C2)S(=O)(=O)c2c(C)nn(C)c2C)cc1 (centres undefined)
→ -23 | 8 | 0.3 | 5 | -1%
CC(C)Nc1nc(Cl)nc(N(C#N)CN2C(=O)c3ccccc3S2(=O)=O)n1
→ . | 1 | 23 | . | 3%
O=C(C[n+]1ccccc1)c1ccc(NC(=O)c2ccccc2)cc1
→ . | 0 | 0.1 | -4 | -4%

New compounds follow:
Results follow in this order: YopH inh | Mtb bLac sens | RecA intein inh | Arbovirus anti | Mtb H37Rv
CC(=O)Nc1ccc(S(=O)(=O)Nc2nc(C)nc3sc4c(c23)CCC4)cc1
→ . | -4 | -3.3 | . | -5%
COc1ccc(CCNC(=O)CN2CCN(c3cccc(C(F)(F)F)c3)CC2)cc1
→ -1 | 27 | 7.8 | 18 | -23%
Cc1ccc(S(=O)(=O)NNC(=O)CCC(=O)Nc2ccccc2Cl)cc1
→ . | 0 | -3.1 | . | .
CN(C)CCCNC1CS(=O)(=O)CC1O (centres undefined)
→ 0 | -8 | 0.7 | 12 | 4%
O=C(O)CC(NS(=O)(=O)c1cccc2nsnc12)c1ccc(F)cc1 (centres undefined)
→ -15 | -4 | -1.3 | 5 | 1%
CC1(c2nnc(-c3ccccc3)o2)CC(c2cccnc2)=NO1 (centres undefined)
→ . | -1 | -1.4 | . | -3%
N/C(=N\OC(=O)COc1cc(Cl)c(Cl)cc1Cl)c1ccncc1
→ . | 3 | 0.7 | -11 | 0%
CCCN1CCC(NC(=O)Cc2ccc(C)cc2)CC1
→ . | -5 | -2.6 | . | .
Cc1ccc(Cn2ncc3c(N4CCN(c5ccccc5C)CC4)ncnc32)cc1
→ -13 | 98 | 3.3 | -14 | 16%
Cc1nn(Cc2ccc(F)cc2Cl)c(C)c1[N+](=O)[O-]
→ . | -6 | 1.6 | 4 | 6%
COc1ccc2[nH]c(=O)c(CN(C(=O)c3cccnc3)c3ccccc3C)cc2c1
→ . | 1 | -2.0 | . | -3%
COCCCNC(=O)CNC(=S)N(Cc1cc(OC)c(OC)c(OC)c1)C1CCCC1
→ -5 | 0 | -1.5 | 3 | 1%
CN(Cc1ccccc1)S(=O)(=O)c1csc(C(N)=O)c1
→ . | 3 | 11 | . | .
O=C(CSc1ccc2nnc(-c3ccncc3)n2n1)Nc1ccc2c(c1)OCCO2
→ 12 | 12 | -3.0 | 6 | -4%
O=C(CCN1CCCO1)N1CCCC(N2CCN(c3cccc(C(F)(F)F)c3)CC2)C1 (centres undefined)
→ . | -6 | 1.7 | . | .

Among those listed so far, 2 contain a tert-butyl group:
Results follow in this order: YopH inh | Mtb bLac sens | RecA intein inh | Arbovirus anti | Mtb H37Rv
CC(C)(C)c1ccc(S(=O)(=O)NNC(=O)c2cc3ccccc3[nH]2)cc1
→ . | 6 | 16 | . | .
Cc1cc(C(=O)CSc2nn3c(=O)c(C(C)(C)C)nnc3s2)c(C)n1C1CC1
→ . | 4 | 8.7 | 20 | 7%

Full records, quoted from the list:
Listed for `Cc1cc(NCc2ccco2)n2ncnc2n1` → YopH inh: -15; Mtb bLac sens: 4; RecA intein inh: 0.6; Arbovirus anti: -3; Mtb H37Rv: -1%
Listed for `O=C(CSc1nnc(-c2ccc(C(F)(F)F)cn2)o1)Nc1ccccc1Cl` → YopH inh: .; Mtb bLac sens: -5; RecA intein inh: -0.5; Arbovirus anti: .; Mtb H37Rv: -1%

This is a subset. The share of hits here may be higher or lower than overall.
